NPYLR7 ag: activates Aedes aegypti NPYLR7 receptor; HEK293T NPYLR7/Galpha15, GCaMP6s calcium fluorescence; activation, % at 10 µM; 270,000 compounds, 0.15% hits; in the data active = activation above about 40%;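 note: 0% = vehicle and 100% = reference agonist at the receptor; some compounds past the cut are filed as inactive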
NPYLR7 ag max-min: also measured in NPYLR7 ag; calls as there; activation, %; measured here: Max-Min RFU normalised activation; some inactives read as strong as hits;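 span of the calcium signal over five minutes; 0% = vehicle and 100% = native peptide agonist; compound fluorescence can raise it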
Numbers without * were called inactive. These rows are one share of the data; count on the stated rates, not on these rows.

SMILES | NPYLR7 ag | NPYLR7 ag max-min
O=C(CSc1nc(=O)n(Cc2ccccn2)c2c1CCC2)N1CCN(c2ccccc2)CC1 | 2 | -1
CC(C)CN1CCN(c2ccc(C(F)(F)F)cn2)C(C)C1=O (configuration not stated) | -2 | -8
CCOC(=O)c1ccc(N=CC2=C(O)CC(C)(C)CC2=O)cc1 | 0 | -5
O=C(Nc1ccccc1C(=O)NCCN1CCOCC1)c1csnn1 | 2 | 1
Cc1ncccc1C(=O)NCC1(CN2CCN(C)CC2)CC1 | 3 | 3
CCSCCN(C(=O)c1oc(CC)nc1C)C1CCCCC1 | 10 | 5
COC(=O)[C@@H]1Cc2ncn(C)c2CN1Cc1cc2ccccc2o1 | -8 | -16
CCn1ccnc1CNCc1cccnc1Oc1cccc(C(F)(F)F)c1 | 8 | 2
Cc1c(C#N)c(SC(C)C(=O)NC(C)(C#N)C(C)C)nc2c1CCC2 (configuration not stated) | -1 | -1
Cc1ccc(C)c(-n2nc(-c3ccco3)cc2C(=O)NC(Cc2ccccc2)c2ccccc2)c1 (configuration not stated) | -10 | -1
COCc1cccc(S(=O)(=O)Nc2ccc3ccn(C)c3c2)c1 | 13 | 10
Cc1ccccc1C1(O)CCN(C2CCN(C(=O)c3ccncc3)CC2)C1 (configuration not stated) | -2 | -6
COCc1cc(=O)n2[nH]c(-c3ccccc3)cc2n1 | -10 | -10
CCOC(=O)c1ccc2c(c1)nc(SCc1ccc(Br)cc1)n2CCOC | 2 | -4
Cc1ccc(S(=O)(=O)N2CCN(Cn3c(=O)n(C)c4ccccc43)CC2)cc1 | 7 | 11

Brought forward from above: 3 compounds, followed by the next part.
SMILES | NPYLR7 ag | NPYLR7 ag max-min
COCc1cc(=O)n2[nH]c(-c3ccccc3)cc2n1 | -10 | -10
CCOC(=O)c1ccc2c(c1)nc(SCc1ccc(Br)cc1)n2CCOC | 2 | -4
Cc1ccc(S(=O)(=O)N2CCN(Cn3c(=O)n(C)c4ccccc43)CC2)cc1 | 7 | 11
CCOC(=O)[C@@H]1CN(S(=O)(=O)c2ccc(NC(C)=O)cc2)[C@H]2c3cccc(C)c3O[C@@H]12 | 0 | 10
COCCN(CCOC)c1nc(N)c(C#N)c(CC#N)c1C#N | 7 | 9
COc1cccc(CN2CCCC3(CCN(C(=O)CCc4cnccn4)C3)C2)c1 (configuration not stated) | -2 | -7
Cc1cccc(NC(=O)Cn2c(=O)n(Cc3ccccc3)c(=O)c3oc4ccccc4c32)c1C | 4 | 7
COc1ccc(CCC2NCCn3cccc32)cc1OC (configuration not stated) | 3 | 4
COc1ccc(CN2CCN(C3CCCCC3)C(=O)C2)cc1C(=O)O | 14 | 7
Cc1ccccc1C(=O)N[C@@H]1CCCCC1NC(=O)C1CCCN(C(=O)Cc2cccs2)C1 (some centres not stated) | 0 | 13
COc1cccc(-n2c(SCC(=O)N3CCOCC3)nc3c([nH]c4ccccc43)c2=O)c1 | 0 | 54
COc1ccc(C)cc1NC(=O)C1CCCN1C(=O)c1cccs1 (configuration not stated) | -5 | -8
Cc1cc(C(=O)CN2C=Nc3ccccc3S2(=O)=O)c(C)n1CCC(C)C | 17 | 12
CCOc1ccc(N2CCN(C(=O)c3ccccc3Cl)C(C)C2=O)cc1 (configuration not stated) | 3 | 18
CCCCN(CCCC)Cn1c(O)c(N=NC(=O)COc2ccc(Cl)cc2)c2ccccc21 | -11 | -17
O=C(CN1CN(c2ccccc2)C2(CCN(S(=O)(=O)c3cccc4cccnc34)CC2)C1=O)NC1CC1 | 19 | 27
CCN(CC)S(=O)(=O)c1ccc2oc(=S)n(CN3CCOCC3)c2c1 | 1 | -4
COC(=O)c1ccccc1N1C(=O)/C(=C\c2cc(C)c(C)o2)N(C)C1=S | 5 | 1

Complete entries as entered above. Screens in order: NPYLR7 ag	NPYLR7 ag max-min
`O=C(Nc1ccccc1C(=O)NCCN1CCOCC1)c1csnn1` across the screens: 2	1
`Cc1ncccc1C(=O)NCC1(CN2CCN(C)CC2)CC1` across the screens: 3	3
`O=C(CN1CN(c2ccccc2)C2(CCN(S(=O)(=O)c3cccc4cccnc34)CC2)C1=O)NC1CC1` across the screens: 19	27

Remaining list, next part.
SMILES | NPYLR7 ag | NPYLR7 ag max-min
CC1COCCN1Cn1nc(Br)nc1Br (configuration not stated) | 19 | 21
COc1nc(-c2ccc(C(F)(F)F)cc2)n(-c2ccc(NC(=O)c3ccc(Cl)cc3)cc2)n1 | -3 | -3
Cc1ccccc1C1c2ccsc2CCN1C(C)C(=O)N1CCN(C(=O)c2ccc(F)cc2)CC1 (configuration not stated) | 13 | -2
CCCCCCc1ccc(C(=O)N2CCC(C(=O)NC3CCCC[C@H]3NC(=O)c3ccccc3)CC2)cc1 (some centres not stated) | 8 | 4
CCCN(Cc1nc(-c2ccc(Cl)cc2)no1)CC1CCCO1 (configuration not stated) | 1 | 0
COCCn1c(N2CCCC(C)C2)nc2c1c(=O)[nH]c(=O)n2C (configuration not stated) | 15 | 7
CSc1nnc2c(n1)OC(c1cc([N+](=O)[O-])ccc1O)N(C(C)=O)c1ccccc1-2 (configuration not stated) | -11 | -16
CCOC(=O)c1c(NC(=O)c2ccccc2F)sc(C(=O)N2CCOCC2)c1C | -5 | -8
CC(C)(C)c1ccc(NC(=O)c2ccc3nc(-c4ccccc4)c(-c4ccccc4)nc3c2)cc1 | -6 | -12
O=C(O)c1ccccc1N=Nc1c(O)[nH]c2ccc(Br)cc12 | -4 | -6
COc1cccc(COC(CN2CCN(S(=O)(=O)c3ccc(OC(F)F)cc3)CC2)c2ccc(Cl)cc2)c1 (configuration not stated) | 28 | 19
CCCCc1n[nH]c(=O)n1Cc1cccs1 | 24 | 14
O=C(NCCNc1nc(-c2cccc(Br)c2)nc2ccccc12)c1ccc(C(F)(F)F)cc1 | 6 | 7
COc1ccc(C(=O)C(O)c2ccc(OC)cc2)cc1 (configuration not stated) | -7 | -9
CCc1cnc2c(c1N1CCOCC1)c(=O)n(C)c(=O)n2C | 2 | 0

Reprinted from the part before: 3 entries, then new ones.
SMILES | NPYLR7 ag | NPYLR7 ag max-min
O=C(NCCNc1nc(-c2cccc(Br)c2)nc2ccccc12)c1ccc(C(F)(F)F)cc1 | 6 | 7
COc1ccc(C(=O)C(O)c2ccc(OC)cc2)cc1 (configuration not stated) | -7 | -9
CCc1cnc2c(c1N1CCOCC1)c(=O)n(C)c(=O)n2C | 2 | 0
COc1ccc2cc(-c3[nH]ncc3CN(CCO)Cc3cccs3)ccc2c1 | 8 | 2
CCC(C)N(CC(=O)N1CCc2sccc2C1c1ccc(F)cc1)S(=O)(=O)/C=C/c1ccccc1 (configuration not stated) | -9 | -4
CC(C)(C)c1ccc2c(c1)CC(CNC(=O)c1cccs1)O2 (configuration not stated) | 26 | 38
COc1ccc2ccccc2c1CN1CC[C@@H](N2CCN(C)CC2)[C@H](O)C1 | 5 | 4
Cc1nc2sccn2c(=O)c1NC(=O)Nc1ccc(F)cc1F | 0 | -2
COc1cccc(N2C(=O)CSC2c2ccc(NC(=O)c3ccc(Cl)c(Cl)c3)cc2)c1 (configuration not stated) | 3 | 12
COc1cc(NC(=O)c2cc(-c3ccco3)nc3c2cnn3C(C)C)cc(OC)c1OC | -5 | -8
CC#CCN(Cc1ccco1)C(=O)C(C)N(c1ccccc1)S(C)(=O)=O (configuration not stated) | -6 | -9
O=C(Nc1ccc2c(c1)CCC2=O)c1ccc(CN2CCCC(O)C2)cc1 (configuration not stated) | 3 | 3
CCOC(=O)c1ccc2c(c1)nc(SCc1nc(-c3cccc(F)c3)oc1C)n2Cc1ccco1 | 0 | -4
COC(=O)Cn1cnc2sc3c(c2c1=O)CCCC3 | 2 | -1
Cc1ccc(-c2nc(CNCC3CCc4nncn4C3)cs2)cc1 (configuration not stated) | 6 | 1
COc1cccc(/C=C2/C(=O)N(c3ccc(Cl)c(Cl)c3)N=C2C)c1O | -9 | -16
CCCC(C(=O)NCCN1C(=O)SC(=Cc2ccccc2)C1=O)c1ccccc1 (configuration not stated) | 0 | -1
CCN1CCN(C(=O)c2cnn(C)c2-c2ccccc2)CC1 | 19 | 33
CC(C)CN1CCOC(CSc2nc3sc4c(c3c(=O)n2C)CCC4)C1 (configuration not stated) | 5 | 2
Cc1ccc(-n2nnnc2CNC(=O)NCc2cccc3ccccc23)cc1 | 0 | 0
O=C(CSc1nc2c(c(=O)n1CCc1ccccc1)SCC2)NCCc1ccccc1 | -14 | -15
CCCn1c(C)cn2c3c(=O)n(CCOC)c(=O)n(C)c3nc12 | 6 | 7
Cc1ccc(CNC(=O)Nc2nnc([C@H]3C[C@H](O)[C@@H](CO)O3)s2)cc1 | -4 | -6
O=C(Nc1ccc(-c2cc3ccccc3[nH]2)cc1)C1CCN(CCCn2cccn2)CC1 | 5 | 6
Cc1cc(C)c2ccc(C(=O)N3CCOC(C(F)(F)F)C3)nc2c1O (configuration not stated) | -1 | -3
COc1ccccc1NC(=O)N1CCOC(c2ccccc2)C1 (configuration not stated) | 3 | 2
COc1cccc2c1Oc1[nH]c(-c3cccc(OC)c3OC)nc(=S)c1C2 | 4 | 3
CCOCCCNC(=O)c1cc(NC(=O)c2ccc(Br)cc2)ccc1N1CCCC1 | -1 | 4
COc1c(C)cnc(CN2CCCC3(CC2)CN(C)C(=O)O3)c1C (configuration not stated) | 8 | 4
COCCNC(=O)Cn1nc2c(c1NC(=O)c1cc(=O)c3ccccc3o1)CSC2 | -4 | 1
CC1CN(C(C)C(=O)Nc2ncccn2)CC(c2ccccc2)O1 (configuration not stated) | 2 | -1
CCOc1ccc(-c2c(C#N)c(N)nc(OC)c2C#N)cc1 | -8 | -15
Clc1ccc2nc(-c3ccncc3)c(Nc3ccc4c(c3)OCCO4)n2c1 | 7 | -2

Single values from above.
Cc1ccc(-n2nnnc2CNC(=O)NCc2cccc3ccccc23)cc1 in NPYLR7 ag is entered as 0
CC(C)CN1CCOC(CSc2nc3sc4c(c3c(=O)n2C)CCC4)C1 (configuration not stated) in NPYLR7 ag max-min is entered as 2
COCCNC(=O)Cn1nc2c(c1NC(=O)c1cc(=O)c3ccccc3o1)CSC2 in NPYLR7 ag is entered as -4

Remaining list, next part:
SMILES | NPYLR7 ag | NPYLR7 ag max-min
COCCn1c(=O)c2c(nc3oc(C)c(C)n32)n(C)c1=O | 9 | 10
CC(C)c1ccc(Oc2cnn(-c3cccc(Cl)c3)c(=O)c2Nc2cccc(C(=O)NCc3ccncc3)c2)cc1 | 9 | 12
CCOc1cc2c(cc1NC(C)C(=O)Nc1cccc(C(C)=O)c1)OC(C)C2 (configuration not stated) | -2 | -3
Cn1ncc2c(NCCO)nc(N3CCN(Cc4ccccc4)CC3)nc21 | 5 | 1
CCOC(=O)c1c(NC(=O)CN2CCN(c3nccs3)CC2)sc(C)c1-c1ccc(C)cc1 | 6 | 1
Cc1cccc(COC2CCCN(C(=O)c3ccc(Cl)cc3Cl)C2)c1 (configuration not stated) | 7 | 13
CNc1nc2cnc(Nc3ccc(S(C)(=O)=O)cc3)cc2n1-c1ccccc1 | 11 | 0
COc1ccc(-c2nc(C)cnc2C)c(OC)c1OC | 1 | 1
O=[N+]([O-])c1cc(S(=O)(=O)N2CCCCCC2)ccc1Oc1ccc2c(c1)OCO2 | 4 | 4
OC(COCc1ccco1)CN(Cc1c(-c2ccc(F)cc2)noc1N1CCOCC1)CC1CCCO1 (configuration not stated) | 9 | 13
COCCN(CCC(=O)NCc1cccc(C(F)(F)F)c1)c1nc(-c2ccc(OC)cc2)nc2ccccc12 | 12 | 5
CCN(C)c1cc(N2CCN(Cc3ccc(OC)cc3F)CC2)ncn1 | -4 | -6
CCOc1ccc2ncc(C#N)c(N3CCC4(CC3)OCCO4)c2c1 | -3 | -5
Cc1cccc(OCC(=O)Nc2c(C(=O)N3CCOCC3)oc3ccccc23)c1C | 6 | 5
Cc1ccc(SCCC(=O)Nc2nnc(Cc3cccs3)o2)cc1 | -8 | -9
COc1ccccc1OCCCOc1ccc(C)cc1OC | 4 | 3
Cc1ccccc1-n1c(SCc2nc(C(=O)NCc3ccccn3)cs2)nnc1-c1ccco1 | 18 | 14

From PubChem BioAssay
